Vif A3G: inhibitors of Vif binding to APOBEC3G peptide, primary screen, biochemical, TR-FRET, GST-Vif 1-94, biotin-A3G peptide, dose response retest (AID 1117319). Virion infectivity factor (Human immunodeficiency virus type 1 group M subtype B (isolate …. TR-FRET GST-Vif / biotin-A3G peptide binding; higher % means a stronger effect; test concentration not given here; strong numbers were not always called active. inhibition, %; hits with a dose series show IC50 in µM. 0.57% of 260,000 active;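 active = above the screen mean plus three standard deviations and confirmed in dose response; inconclusive = results disagree or hit not tested in dose response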;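 also: Vif residues 1-94 fused to GST binding biotinylated APOBEC3G peptide 110-148; 0% = full assay without inhibitor and 100% = GST in place of GST-Vif; retest series ran down from 100 µM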
Bfl-1 A1 inh: caspase 3/7 activation in MEF A1-2A-BIM cells, primary screen, A1 inhibitor project, cell-based, luminescence, HTS; Caspase-Glo 3/7 luminescence, 3 h; percent of clofoctol response, vehicle zero; caspase activation, % (concentration not given with the values); 0.066% of 330,000 active;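 active = over half of replicate activation scores above 10%, or exactly half above 10 with the replicate mean above 10; inconclusive = replicate mean below 10 yet half the replicates above 10; inactive = over half of replicates below 10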;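 also: wells of about 30 µL received 50 nL stock; many hits fall short of the cut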
B2AR ag: beta2AR agonists driving receptor internalization, primary screen, cell-based, FAP fluorogen, flow cytometry | Am2.2-beta2AR cells; reference of the scale not given here | 0.43% of 340,000 active | Beta-2 adrenergic receptor (Homo sapiens), P07550 | response, % (test concentration not listed) | AID 504454, 2011;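 active = response above a set limit, near 3 SD of response in nonfluorescent compounds, cut at about 42% in these data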;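 also: stock transfer was 100 nL into about 11 µL; a reference agonist was the positive control; negative values mostly stem from fluorescent compounds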
HNF4A DNA FP: change in binding of human HNF4A to DNA, primary screen, biochemical, fluorescence polarization, FITC-DNA. Hepatocyte nuclear factor 4-alpha (Homo sapiens), P41235. 1 h. activity change, % at 10 µM. 0.3% of 360,000 active; in the data active = activity change above about 30%, passing the limit was not always enough;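 also: controls were the assay level and a saturating level of protein; the project sought stronger binding though the title names inhibitors; some compounds called inactive have numbers as strong as hits; positive values seem to mean higher polarization but the record does not say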
LANA-H2B inh: blockers of LANA interaction with H2A/H2B – biochemical, FP readout, HTS, primary screen | Protein LANA1 (Human herpesvirus 8 type P (isolate GK18)), Q9QR71 | cell-free LANA-H2A/H2B peptide, fluorescence polarization | inhibition, % (concentration not given with the values) | 0.6% of 320,000 active | AID 2629, 2010; in the data active = inhibition mostly above about 10%, no sharp cut-off; inactive = mostly below about 6.7%;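 also: stock transfer was 7.5 nL into about 10 µL; 0% = median of vehicle wells and 100% = median of positive control wells; one replicate is shown; the record names a cut of 25% in any replicate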
Target sequence (Q9QR71 whole entry, looked up): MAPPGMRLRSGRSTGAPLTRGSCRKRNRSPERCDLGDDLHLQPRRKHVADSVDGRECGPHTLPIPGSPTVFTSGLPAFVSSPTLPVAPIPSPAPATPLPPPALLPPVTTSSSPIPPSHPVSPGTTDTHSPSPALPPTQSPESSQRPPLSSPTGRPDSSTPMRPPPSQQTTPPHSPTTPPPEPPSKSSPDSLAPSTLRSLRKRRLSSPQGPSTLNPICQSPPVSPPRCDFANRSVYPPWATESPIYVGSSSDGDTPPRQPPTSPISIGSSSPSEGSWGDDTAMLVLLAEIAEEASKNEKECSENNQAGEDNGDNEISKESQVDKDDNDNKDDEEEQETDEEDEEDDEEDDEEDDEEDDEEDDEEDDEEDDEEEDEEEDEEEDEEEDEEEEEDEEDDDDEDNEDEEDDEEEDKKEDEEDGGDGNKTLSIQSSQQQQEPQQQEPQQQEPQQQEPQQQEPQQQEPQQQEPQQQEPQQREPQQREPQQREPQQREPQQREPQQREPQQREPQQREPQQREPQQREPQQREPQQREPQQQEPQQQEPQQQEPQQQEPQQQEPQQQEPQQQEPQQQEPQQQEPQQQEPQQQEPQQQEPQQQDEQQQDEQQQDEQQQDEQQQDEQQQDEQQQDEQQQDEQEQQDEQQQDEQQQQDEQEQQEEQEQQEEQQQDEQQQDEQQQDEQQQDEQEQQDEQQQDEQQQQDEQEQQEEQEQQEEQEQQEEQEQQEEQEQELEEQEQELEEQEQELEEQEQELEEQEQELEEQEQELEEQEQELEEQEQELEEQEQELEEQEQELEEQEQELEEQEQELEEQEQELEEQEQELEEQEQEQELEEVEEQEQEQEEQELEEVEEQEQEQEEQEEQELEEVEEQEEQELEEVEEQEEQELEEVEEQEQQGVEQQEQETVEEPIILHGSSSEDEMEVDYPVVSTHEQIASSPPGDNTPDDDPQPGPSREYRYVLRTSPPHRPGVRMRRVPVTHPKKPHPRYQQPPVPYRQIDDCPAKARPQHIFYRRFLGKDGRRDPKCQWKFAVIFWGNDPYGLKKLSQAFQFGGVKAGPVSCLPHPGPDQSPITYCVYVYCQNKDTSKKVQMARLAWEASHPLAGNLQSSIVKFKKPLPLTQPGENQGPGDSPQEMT
E coli growth: E. coli growth inhibition, primary screen, OD600. OD600 absorbance (no concentration beside the values). Escherichia coli growth, 23 h; hits give low values. 0.21% of 330,000 active;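 active = OD600 absorbance below the run mean of sample wells minus 3.6 SD, in any replicate, cut at about 0.56 in these data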;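 also: stock transfer was 300 nL into about 60 µL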
UCH37 DUB inh: inhibitors of human UCH37 deubiquitinase, primary screen, biochemical, Ub-AMC cleavage, fluorescence. purified proteasome/UCH37. inhibition, % (concentration not given with the values). 0.33% of 330,000 active. AID 588478, 2011;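 active = mean of two replicates above 20%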;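 also: 0% = compound-free wells with enzyme and 100% = wells lacking proteasome; stock transfer was 100 nL into about 20 µL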
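System: Proteasome-associated human UCH37 deubiquitinase; Input: 0.15 nM proteasome in added enzyme buffer; Also added: Ub-AMC substrate from 1 µM stock; Incubation: 30 min compound-proteasome preincubation then 25 min substrate reaction, room temperature; Detection: fluorescence, ex 355 nm, em 460 nm; Read-out: % inhibition of Ub-AMC cleavage fluorescence; Benchmarks: no-proteasome and no-compound wells.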
Active calls of the source: *; ? = inconclusive; . = no result given.

SMILES | Vif A3G | Bfl-1 A1 inh | B2AR ag | HNF4A DNA FP | LANA-H2B inh | E coli growth | UCH37 DUB inh
CCOc1ccc(Nc2nc(Cc3nnc(SCC(=O)NC4CCCC4)n3C)cs2)cc1 | 26% | 1.2 | -18 | 0.7 | 6.3 | 0.67 | 4.3
O=C(NC1(O)C(=O)c2ccccc2C1=O)c1c(Cl)cccc1Cl | 17% | -0.5 | -2 | 10 | 5.2 | 0.64 | 80*
Cc1noc(C)c1CSc1nc2ccccc2nc1NS(=O)(=O)c1ccc(Cl)cc1 | ? | 0.6 | 9 | -8.4 | -4.9 | 0.69 | -6.9
O=C(CCc1ccc(S(=O)(=O)NCCc2ccccc2)cc1)Nc1ccc2c(c1)OCCO2 | . | -0.5 | 2 | 3.7 | 0.8 | 0.7 | 2.6
CCN(CC)CCOc1ccc2c(c1)C(=NO)c1cc(OCCN(CC)CC)ccc1-2 | -3% | 0.6 | 15 | -9.7 | -6.1 | 0.71 | 2.7
CCN(C(=O)c1cc(S(=O)(=O)N2CCc3ccccc32)cn1C)c1ccccc1 | . | . | 6 | 3.1 | 0.8 | 0.66 | 0.9
CCn1c(SCC(=O)Nc2cc(C)on2)nnc1-c1ccc(S(=O)(=O)N2CCN(C)CC2)cc1 | 30% | 0.6 | 1 | 0.5 | 2.9 | 0.68 | 3.9
COc1ccc(CC(=O)NNS(=O)(=O)c2cccc([N+](=O)[O-])c2)cc1OC | -6% | 0.3 | -1 | 0.8 | -2.5 | 0.65 | 0.7
CN1CCN(NC(=O)c2cccc(S(=O)(=O)N3CCCCCC3)c2)CC1 | -16% | 0.6 | 2 | 3.0 | -2.7 | 0.69 | -1.7
CC1=NN(S(=O)(=O)c2ccc(F)cc2)C(=O)c2ccccc2O1 | 5% | -0.1 | -5 | 0.4 | 2.4 | 0.7 | 3.9
COc1ccc(C(=O)CN2C(=O)NC(C)(c3ccccc3)C2=O)cc1OC (stereo unspecified) | 1% | -0.5 | 0 | 0.3 | 1.4 | 0.69 | 2.6
O=C1NN(c2ccccc2)C(=O)/C1=C/c1ccc(-c2ccc(C(=O)O)cc2)o1 | . | 0.1 | 2 | -22 | 1.9 | 0.72 | -20
CC(=O)c1cccc(NC(=O)CCc2nnc3ccc(N4CCN(C)CC4)nn23)c1 | . | 2.8 | 5 | 3.4 | 4.5 | 0.72 | 0.8
O=C(O)CCCCCCCCc1cn(Cc2ccc(C(=O)c3ccccc3)cc2)nn1 | . | -0.4 | 7 | 5.8 | 0.8 | 0.71 | 1.0
O=C(c1cccc([N+](=O)[O-])c1)N1CCCN(C(=O)c2cccc([N+](=O)[O-])c2)CC1 | 7% | 0.4 | 2 | 0.8 | 2.9 | 0.69 | -23
O=C(NN=C1C2CC3CC(C2)CC1C3)c1cccs1 | 14% | 0.0 | 7 | -1.2 | -6.2 | 0.7 | 4.3
CCOC(=O)[C@H]1[C@H]2COc3ccc(Cl)cc3[C@@H]2N2C(=O)CN(Cc3ccc(OC)cc3)C(=O)[C@@]12C | . | -1.3 | -4 | 0.9 | 3.6 | . | 2.7
COc1ccc(Cc2nnc(SCC(=O)NC(C)c3ccccc3)o2)cc1 (stereo unspecified) | 9% | 1.3 | 5 | 1.5 | -5.8 | 0.72 | 4.2
CCOC(=O)NC(Nc1sc2c(c1C(=O)OC)CCN(C)C2)(C(F)(F)F)C(F)(F)F | 4% | 0.8 | 10 | 1.2 | 10 | 0.71 | 1.8
CCOc1ccc(OCCC(=O)OCC(=O)c2c(N)n(C)c(=O)n(C)c2=O)cc1 | 14% | 1.0 | -1 | -6.7 | -4.1 | 0.71 | 3.5
Cc1cc(NS(=O)(=O)c2ccc(NC(=O)CCCOc3ccccc3C)cc2)no1 | 5% | -1.1 | 2 | -2.8 | -3.8 | 0.67 | -1.3
C=C(C)C(=O)Nc1cccc(C2=NOC3(C2)C[C@@H](C(N)=O)N(C(=O)[C@H]2CCC(=O)N2)C3)c1 (stereo partly specified) | 24% | -2.1 | -9 | -11 | 2.8 | . | 0.3
CCOc1ccc(NC(=O)N2CCCC2C(=O)NCc2ccco2)cc1 (stereo unspecified) | . | -0.7 | -3 | -1.0 | -4.8 | 0.7 | 6.5
Cc1ccc(C2(C)NC(=O)N(CC(=O)NNC(=O)c3ccoc3C)C2=O)cc1 (stereo unspecified) | 3% | -0.1 | -5 | -1.3 | -2.1 | 0.63 | -1.9
Cc1ccc(NNC(=O)c2c(F)cccc2Cl)cc1C | . | 0.4 | -2 | 0.5 | 2.4 | 0.68 | 5.2
COc1ccc(C(=O)C2CCCN(C(=O)c3cccc(Cl)c3F)C2)cc1OC (stereo unspecified) | 0% | 0.7 | 7 | -2.0 | 3.1 | 0.68 | 0.4
COc1ccc(-c2coc3cc4oc(=O)c5ccccc5c4cc23)cc1F | . | 0.1 | 21 | -0.2 | -3.4 | 0.72 | 1.0
Nc1nonc1-n1nnc(C(=O)O)c1-c1cccs1 | -4% | 0.1 | -6 | -1.2 | 0.7 | 0.72 | 1.1
COc1ccc(S(=O)(=O)N(C)c2ccc(C(=O)N3CCOCC3)cc2)cc1 | 19% | -0.1 | 6 | -2.0 | -4.3 | 0.76 | 1.7
COc1ccccc1/C=C1/SC(=O)N(CCC(=O)Nc2ccc(S(=O)(=O)Nc3nccs3)cc2)C1=O | 13% | 0.6 | -3 | 1.5 | -0.8 | . | .
O=C(NCCNc1nccc(C(F)(F)F)n1)c1cccs1 | -7% | 1.1 | -11 | -1.0 | -4.7 | 0.67 | 0.0
C=C(C)CNC(=O)c1ccc(OC2CCN(C(=O)COC)CC2)cc1 | 4% | 0.7 | 2 | -3.2 | 0.1 | . | .
CCOC(=O)C[C@H]1c2ccccc2S(=O)(=O)N1c1cccc(OC)c1 | . | -0.7 | -3 | -3.9 | 5.6 | . | 2.7
c1ccc2[nH]c(-c3nc4ccccc4[nH]3)nc2c1 | -3% | -6.2 | -5 | 6.1 | 2.0 | 0.71 | -95
Cc1cc(Cl)n2c(nc3ccccc32)c1C#N | 8% | . | 99* | -3.0 | . | 0.59 | -37
O=C(COC(=O)c1ccc2c(c1)OCCO2)Nc1ccc(F)cc1 | -1% | . | 8 | 4.5 | . | 0.67 | 1.6
COc1cc(C)c(Br)cc1S(=O)(=O)NCc1ccccc1 | 20% | 0.6 | 10 | 2.3 | -4.8 | 0.64 | 2.1
Cc1ccsc1/C=N/NC(=O)c1nnn(-c2nonc2N)c1-c1ccc2c(c1)OCO2 | . | 0.7 | -4 | -1.9 | -3.5 | . | .
O=C(NNC(=O)c1cc(-c2ccc(Cl)c(Cl)c2)nc2ccccc12)Nc1ccccc1 | 5% | 0.3 | 2 | 0.1 | -1.4 | . | .
CC(C)(C)c1ccc(C(=O)NC2CCN(Cc3ccccc3)CC2)cc1 | 12% | -0.2 | 30 | 1.6 | -7.8 | 0.64 | 2.1
COC(=O)c1ccccc1NC(=O)CCS(=O)(=O)c1ccc(Br)s1 | -6% | 2.6 | 0 | -2.5 | -1.8 | 0.71 | 0.8
CCOc1cccc(-c2cc(C(=O)N3N=C(C)CC3(O)C(F)F)c3ccccc3n2)c1 (stereo unspecified) | . | -0.1 | -16 | 1.7 | 0.7 | 0.71 | -0.2
O=S(=O)(c1ccc(NCc2ccc(F)cc2)nc1)N1CCCC1 | -6% | -0.1 | -2 | 7.0 | 2.9 | 0.73 | 1.8
CCCCC1=CC2=C(c3ccco3)C(=O)C(C)(OC(=O)c3ccc(OC)cc3)C(=O)C2=CN1Cc1ccco1 (stereo unspecified) | . | 0.2 | -4 | -23 | -5.7 | . | 5.0
O=C(Nc1ccc(N2CCOCC2)c(Cl)c1)c1cc2ccccc2o1 | 6% | 0.6 | 19 | 0.7 | -1.5 | 0.71 | -6.0
O=C(Nc1cccnc1)C(Cc1ccccc1)n1cccc1 (stereo unspecified) | 1% | -0.1 | 1 | -0.6 | -4.3 | 0.74 | 1.6
O=C(N/N=C/c1ccc(F)cc1)c1ccncc1 | . | -0.4 | -8 | -3.5 | 2.3 | . | .
O=C(Nc1ccc(Cl)c(Cl)c1)c1ccncc1 | -2% | -0.8 | -4 | -0.3 | -7.9 | 0.67 | -2.0
Cc1cc(S(=O)(=O)Nc2ccc(C(=O)N3CCN(c4ccccc4O)CC3)cc2)ccc1F | . | -0.3 | 2 | 3.7 | -1.0 | 0.74 | 1.2
COc1ccc(N(CC(=O)Nc2ccc(C)c(C)c2)S(=O)(=O)c2c(C)noc2C)cc1 | . | -0.5 | 9 | 2.8 | 0.7 | 0.7 | 5.2
CN(C)S(=O)(=O)n1cc(/C=C(\NC(=O)c2ccccc2Cl)C(=O)NCCN2CCOCC2)c2ccccc21 | . | 0.3 | -2 | 1.9 | 6.3 | 0.71 | 3.1
COc1ccc(N(CC(=O)NN=C2CCCC2)S(=O)(=O)c2ccccc2)cc1 | 1% | -0.9 | 6 | 0.9 | -1.0 | 0.7 | 5.4
CSc1ccc(CN2CCN(S(=O)(=O)Cc3ccccc3)CC2)cc1 | . | 0.8 | -13 | 0.8 | 4.3 | 0.71 | 2.6
NC(=O)CSc1nnc(Cc2ccc3c(c2)OCO3)n1C1CCCCC1 | 5% | -0.3 | 0 | 0.7 | -6.0 | 0.69 | 2.0
CN(CC(=O)Nc1ccc(F)c(F)c1)S(=O)(=O)c1cccc2nsnc12 | 33% | 0.4 | -8 | 4.2 | 0.6 | 0.66 | 2.1
CC1(C)C(=O)NCCN1C(=O)CCC(=O)O | -4% | 0.0 | 7 | 1.7 | 3.3 | 0.65 | 0.4
FCCCOc1ccc(-c2nccc(-c3ccc(Cl)cc3)n2)cc1 | 0% | -0.4 | 0 | -0.7 | 1.1 | 0.72 | 4.7
COC(=O)[C@@H]1CC[C@H](C)[C@@H](c2ccc(C)cc2)N1C(=O)c1ccc(/C=N/OCC[C@@H]2C=C[C@H](OC(C)=O)[C@@H](COC(C)=O)O2)cc1 | 5% | -0.2 | . | . | -4.5 | . | .
COc1cc(OC)cc(C(=O)Oc2c(CN3CCOCC3)cc(Cl)c3cccnc23)c1 | -10% | 0.6 | -5 | 2.2 | -3.0 | 0.68 | 6.7
Cc1ncsc1C(=O)NCc1ccc(N2CCCC2=O)cc1 | 3% | 0.0 | -2 | 2.3 | 5.0 | 0.63 | 1.9

Following part:
SMILES | Vif A3G | Bfl-1 A1 inh | B2AR ag | HNF4A DNA FP | LANA-H2B inh | E coli growth | UCH37 DUB inh
CCCc1nc(-c2cc3ccccc3[nH]c2=O)no1 | . | 0.1 | -3 | 2.7 | -0.5 | 0.66 | -74
CC(C)(NC(=O)N1CCCC1)c1cccc(C(C)(C)NC(=O)N2CCCC2)c1 | 9% | -0.1 | 3 | 0.9 | 1.6 | 0.7 | 2.5
COC(=O)COc1ccc(NC(=O)C2CCCO2)cc1 (stereo unspecified) | -1% | 0.1 | 8 | 1.6 | -0.3 | 0.68 | -0.6
COc1ccc(Cl)cc1NC(=O)c1nc2nc(C)cc(C(F)F)n2n1 | -14% | . | -19 | 3.1 | 5.3 | 0.73 | 1.7
COc1cc(NC(=O)c2cccs2)c(OC)cc1NC(=O)CCC(=O)Nc1ccc(C)cc1 | . | 0.2 | -15 | 0.2 | -0.2 | 0.63 | -13
